# Bioassay records: PubChem, several laboratories
# T cruzi inh – inhibitors of intracellular T. cruzi growth, primary screen, luminescence, NIH3T3 host cells. inhibition, % (test concentration not listed). T. cruzi beta-gal in NIH3T3, 90 h. 1.4% of 300,000 active. AID 1885, 2009;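 active means mean inhibition across valid replicates above about 55%, limit read from the data; inconclusive means mean below that limit but half or more replicates reach it; inactive means mean below it, under half of replicates reach it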;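 further: signal also drops with host cell toxicity which is not excluded here; 0% = plate median of DMSO wells and 100% = zero luminescence signal; higher percent means less beta-gal luminescence so fewer parasites; stock transfer was 50 nL into about 50 µL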
# Bfl-1 A1 inh – caspase 3/7 activation in MEF A1-2A-BIM cells, primary screen, A1 inhibitor project, cell-based, luminescence, HTS | 0.066% of 330,000 active | caspase activation, % (concentration not given with the values) | Caspase-Glo 3/7 luminescence, 3 h; percent of clofoctol response, vehicle zero;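 active means over half of replicate activation scores above 10%, or exactly half above 10 with the replicate mean above 10; inconclusive means replicate mean below 10 yet half the replicates above 10; inactive means over half of replicates below 10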;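 further: wells of about 30 µL received 50 nL stock; many hits fall short of the cut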
# Ecoli rRNA inh – reduced GFP signal of wild-type E. coli, primary screen, bacterial rRNA inhibitor project, GFP/RFP fluorescence, OD600, single point | E. coli WT GFP vs humanized-ribosome RFP mutants, 24 h; stronger effect = lower value; DMSO median 0, no signal -100 | GFP signal change (wild-type ribosome), % (test concentration not listed) | 1.6% of 350,000 active;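 active means significant combined selectivity score with lowered wild-type GFP, culture density cut under 30%, mutant RFP and density less affected; inactive means any of these conditions unmet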; further: one replicate is shown; some compounds called inactive have numbers as strong as hits
# Beta apoptosis – inhibitors of cytokine-induced beta cell apoptosis, primary screen, luminescence; INS-1E cytokine-induced death, ATP luminescence, 48 h; percent of positive-control rescue, neutral wells zero; protection from apoptosis, % (test concentration not listed); AID 435005, 2010; 0.8% of 300,000 active;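 active means all replicates at 75% or more, or half of them and the mean; inconclusive means half reach 75% but not the mean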;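 further: 0% = cytokine-treated negative control wells and 100% = positive control rescue; higher means more ATP so stronger rescue from cytokine killing; wells of about 40 µL received 100 nL stock; the first replicate is given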
# MLL AF4-AF9 inh – inhibitors of AF4 peptide binding to AF9, primary screen, biochemical, AlphaScreen, biotin-AF4 peptide, FLAG-AF9, single point; Protein AF-9 (Homo sapiens), P42568; inhibition, % at 10 µM; 0.47% of 350,000 active; AID 651704, 2012;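 active means every replicate reaching a set inhibition limit, whatever the replicate mean, cut at about 25% in these data; inconclusive means mean inhibition reaches that limit but some replicates miss it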;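 further: 0% = plate neutral control median and 100% = total signal loss; the record names both 10 and 1 µM as test concentration; the first replicate is given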
# Target sequence (P42568 whole entry, looked up): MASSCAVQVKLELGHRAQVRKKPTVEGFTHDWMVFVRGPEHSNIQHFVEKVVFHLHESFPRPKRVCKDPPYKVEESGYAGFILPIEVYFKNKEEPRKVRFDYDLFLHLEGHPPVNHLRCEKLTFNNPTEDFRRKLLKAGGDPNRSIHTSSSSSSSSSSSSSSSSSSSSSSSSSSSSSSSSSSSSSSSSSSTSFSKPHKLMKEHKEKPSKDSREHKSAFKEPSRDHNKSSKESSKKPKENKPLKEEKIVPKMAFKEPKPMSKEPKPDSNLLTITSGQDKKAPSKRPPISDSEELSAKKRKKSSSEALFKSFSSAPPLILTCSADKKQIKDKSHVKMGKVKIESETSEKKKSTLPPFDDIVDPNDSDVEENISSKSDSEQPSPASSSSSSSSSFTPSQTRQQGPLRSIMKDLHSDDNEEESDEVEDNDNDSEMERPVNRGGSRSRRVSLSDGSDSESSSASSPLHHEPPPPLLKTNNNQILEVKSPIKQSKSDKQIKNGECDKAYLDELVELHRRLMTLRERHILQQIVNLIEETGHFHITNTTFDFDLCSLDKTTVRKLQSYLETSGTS
# Vif A3G – inhibitors of Vif binding to APOBEC3G peptide, primary screen, biochemical, TR-FRET, GST-Vif 1-94, biotin-A3G peptide, dose response retest (AID 1117319); TR-FRET GST-Vif / biotin-A3G peptide binding; higher % means a stronger effect; test concentration not given here; strong numbers were not always called active; inhibition, %; hits with a dose series show IC50 in µM; 0.57% of 260,000 active;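 active means above the screen mean plus three standard deviations and confirmed in dose response; inconclusive means results disagree or hit not tested in dose response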;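 further: Vif residues 1-94 fused to GST binding biotinylated APOBEC3G peptide 110-148; 0% = full assay without inhibitor and 100% = GST in place of GST-Vif; retest series ran down from 100 µM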
# RanGTP-Imp inh – inhibitors of RanGTP-importin-beta interaction, primary screen, biochemical, FRET, CFP-Ran, YFP-importin-beta, homogeneous; Ran GTPase (GTP-bound) - importin-beta complex; cell-free CFP-Ran/YFP-importin-beta FRET ratio; inhibition, % (no concentration beside the values); 1.1% of 300,000 active; AID 2216, 2009;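 active means most replicates above 15%; inconclusive means exactly half above 15%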;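 further: 0% = DMSO wells and 100% = Ran loaded with GDP instead of GTP; wells of about 40 µL received 100 nL stock; the first replicate is given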
# Calb FLC – C. albicans growth inhibition with fluconazole, primary screen, CaCi-2 strain, Alamar Blue fluorescence; C. albicans CaCi-2 (fluconazole-resistant clinical isolate) + fluconazole, 48 h; growth inhibition, % (test concentration not listed); 0.57% of 300,000 active; AID 1979, 2009;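 active means most replicates above 75%; inconclusive means exactly half above 75%; inactive means most below 75%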;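 further: all wells also contain fluconazole at 8 µg/ml as a sub-toxic cotreatment; 0% = median of DMSO wells and 100% = median of geldanamycin control wells; wells of about 8 µL received 7.5 nL stock; the first replicate is given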
# Ecoli rRNA inh OD600 – further read-out of Ecoli rRNA inh, marked with its call; OD600 change, %; measured here: OD600 growth;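 optical density of the mix in the first replicate; 0 = DMSO median and -100 = no signal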
# Ecoli rRNA inh RFP – also measured in Ecoli rRNA inh; calls as there; RFP signal change, %; measured here: RFP humanized mutant strains;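 first replicate; 0 = DMSO median and -100 = no signal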
# * = called active by the depositor; ? = inconclusive; · = no result given. An excerpt (hit frequency here may not be typical).
# Start of the listing, in advance (three entries):
item	Molecule	T cruzi inh	Bfl-1 A1 inh	Ecoli rRNA inh	Ecoli rRNA inh OD600	Ecoli rRNA inh RFP
1	COc1cnc(-c2cccc(C(F)(F)F)c2)nc1OC	-6	1.4	15	13	1.6
2	CCCCCOC(=O)c1ccc(N2C(=O)C3C4C=CC(C4)C3C2=O)cc1 (stereo not given)	30	0.2	·	·	·
3	CC(=O)c1sc(N/N=C\c2c(O)ccc3ccccc23)nc1C	-9	-4.6	2	-6	-2.3

item	Beta apoptosis	MLL AF4-AF9 inh	Vif A3G	RanGTP-Imp inh	Calb FLC
1	-9	-1.2	-6%	0.8	-3
2	-11	·	4%	4.5	10
3	19	15	·	-29	5

# The list itself (from the top)
item	Molecule	T cruzi inh	Bfl-1 A1 inh	Ecoli rRNA inh	Ecoli rRNA inh OD600	Ecoli rRNA inh RFP
1	COc1cnc(-c2cccc(C(F)(F)F)c2)nc1OC	-6	1.4	15	13	1.6
2	CCCCCOC(=O)c1ccc(N2C(=O)C3C4C=CC(C4)C3C2=O)cc1 (stereo not given)	30	0.2	·	·	·
3	CC(=O)c1sc(N/N=C\c2c(O)ccc3ccccc23)nc1C	-9	-4.6	2	-6	-2.3
4	CCNC(=O)COC(=O)/C=C/c1cccs1	-12	0.7	14	2	-3.6
5	CC(NC(=O)Cc1cccs1)C(c1cccs1)N1CCN(c2ccccc2F)CC1 (stereo not given)	22	-0.4	·	·	·
6	Cc1cc(NS(=O)(=O)c2ccccc2)c(C)c(Cl)c1O	-11	0.3	·	·	·
7	C=CCNC(=S)NNC(=O)c1cccn(Cc2cccc(Cl)c2)c1=O	5	-0.4	·	·	·
8	Cn1c(=O)c2c(nc(NCCc3ccccc3)n2Cc2ccccc2)n(C)c1=O	13	-1.2	·	·	·
9	CCOC(=O)/C(=N\Nc1ccccc1[N+](=O)[O-])c1csc(N)n1	-12	-0.4	-27*	-19*	-5.5*
10	CN(C)S(=O)(=O)c1ccc(N2CCCC2)c(C(=O)Nc2ccccc2Br)c1	16	0.7	-8	0	2.6
11	COc1ccc([N+](=O)[O-])cc1NC(=O)COC(=O)Cc1cc(OC)c(OC)c(OC)c1	-3	-0.5	·	·	·
12	CCOC(=O)c1[nH]c2ccc(C)cc2c1N=CN(CC)CC	5	0.2	·	·	·
13	C=CCc1ccc(OCc2ccc(C(=O)OC)o2)c(OC)c1	-16	0.4	·	·	·
14	CCOC(=O)C[C@H]1c2cc(C(F)(F)F)ccc2S(=O)(=O)N1Cc1ccccc1	-1	-1.0	2	2	-1.8
15	O=C(NCCCN1CCOCC1)C1COc2ccccc2O1 (stereo not given)	-10	0.6	·	·	·

item	Beta apoptosis	MLL AF4-AF9 inh	Vif A3G	RanGTP-Imp inh	Calb FLC
1	-9	-1.2	-6%	0.8	-3
2	-11	·	4%	4.5	10
3	19	15	·	-29	5
4	3	-0.9	21%	7.5	-15
5	8	·	20%	-1.1	-11
6	12	·	11%	-8.3	27
7	-3	·	18%	4.3	-14
8	44	·	2%	-1.0	0
9	9	13	·	6.3	-13
10	2	-25	3%	7.0	-1
11	-8	·	-6%	-0.2	-16
12	2	·	-6%	-2.5	9
13	-9	·	-1%	1.3	7
14	-1	·	·	1.7	0
15	4	·	0%	-2.7	7

# The list continues.
item	Molecule	T cruzi inh	Bfl-1 A1 inh	Ecoli rRNA inh	Ecoli rRNA inh OD600	Ecoli rRNA inh RFP
16	CCc1nn(CCCC(=O)N2CCc3ccccc3C2)c(=O)c2cc3occc3n12	3	1.2	·	·	·
17	Cc1ccc(C(=O)/C=C/c2cc(C#N)n(C)c2C)cc1	9	0.4	4	-1	-0.8
18	COc1ccc(CN2CCOCCOCCOCCOCCOCC2)cc1	-5	1.0	12	0	1.3
19	CC(C)CCNC(=O)CCc1nnc(Cc2c[nH]c3ccccc23)o1	9	-0.5	1	-2	-1.0
20	CC(C)(C)n1nnnc1CN1CCC(NC(=O)NC2CCCCC2)CC1	1	2.1	·	·	·
21	CCOc1ccc(S(=O)(=O)N2CCC(C(=O)NCc3ccncc3)CC2)cc1Cl	5	0.6	0	-3	3.1
22	O=C(c1ccc(CSc2ccc(Cl)cc2)cc1)N1CCCC1	11	-1.2	-50	-71	-14
23	NNC(=O)c1ccc(COc2cccc3ccccc23)o1	15	0.2	·	·	·
24	COC(=O)Cc1nc(NC(=O)c2cccs2)sc1C	2	-1.4	·	·	·
25	COc1ccc(OC)c(S(=O)(=O)Nc2ccc(-c3ccc4nncn4n3)cc2)c1	9	0.3	-3	2	0.2
26	NS(=O)(=O)c1ccc(CCNCc2cccs2)cc1	-3	0.1	11	6	3.2
27	O=C1CC(=O)N(CCc2ccccc2)C(=O)N1CCc1ccccc1	-8	0.5	·	·	·
28	CC(C)(C)NS(=O)(=O)c1ccc(OCC(=O)NCC2CCCO2)cc1 (stereo not given)	-7	0.6	3	3	-3.6
29	Cc1ccc(SC(C)C(=O)Nc2ncn[nH]2)cc1 (stereo not given)	-9	0.9	11	10	7.3
30	CCOc1cc(NC(=O)Nc2ccc(F)cc2)c(OCC)cc1NC(=O)CC	1	0.1	-38*	-24*	4.3*

item	Beta apoptosis	MLL AF4-AF9 inh	Vif A3G	RanGTP-Imp inh	Calb FLC
16	-4	·	1%	-0.4	-5
17	-11	-2.3	49%	4.1	3
18	-8	·	-4%	?	-14
19	-3	-3.1	·	4.1	-2
20	-2	·	5%	0.0	-13
21	·	1.1	·	-0.7	1
22	-5	-2.6	-11%	0.1	-14
23	3	-5.7	-9%	-0.4	-3
24	2	·	0%	0.9	-8
25	-9	0.8	2%	4.1	1
26	-3	0.3	13%	4.4	-5
27	·	·	7%	0.2	8
28	-2	-4.7	-9%	-0.5	-5
29	-6	1.2	0%	-0.2	-5
30	-4	0.5	·	4.4	23

# Remaining list, next part.
item	Molecule	T cruzi inh	Bfl-1 A1 inh	Ecoli rRNA inh	Ecoli rRNA inh OD600	Ecoli rRNA inh RFP
31	O=C(CN1CCN(c2ncccn2)CC1)NCc1ccc2c(c1)OCO2	28	0.2	16	9	3.7
32	Cc1ccc(NNC(N)=S)cc1Cl	-6	0.6	2	1	-1.7
33	Cc1ccc(O)c(NC(=O)C2CC(c3ccc(F)cc3)=NO2)c1 (stereo not given)	-4	-0.7	·	·	·
34	CC/C(O)=C1\C(=O)CC(c2ccccc2)CC1=NCCC(=O)O (stereo not given)	-15	0.0	22	11	-0.4
35	OC(CNC1CCCc2ccccc21)COc1c(Cl)cccc1Cl (stereo not given)	23	0.6	-14	-34	20
36	CC(C)[C@@H]1C=C(C(=O)O)O[C@H](OCCCCO)C1	-17	-0.9	4	20	13
37	CC(=O)Nc1cccc(NC(=O)CSc2nc(=O)n(CCN3CCOCC3)c3c2CCCC3)c1	-6	1.4	-1	3	-0.9
38	CCNc1nc(SCC(=O)Nc2ccccc2)nc(N2CCOCC2)n1	-1	-0.3	4	12	-0.2
39	O=C(COc1ccc(Oc2ccccc2)cc1)NCc1cn2ccccc2n1	39	0.1	-28	-31	-1.6
40	Cc1nn(CC2CC2)c(=O)n1-c1cccc(Cl)c1	-1	0.3	9	-7	-8.0
41	CCc1cccc(CC)c1NC(=O)C1SC(=Nc2ccccc2C)C(c2nc3ccccc3s2)=C1N (stereo not given)	41	-0.1	·	·	·
42	COc1ccc(NC(=O)CCNS(=O)(=O)c2ccc3c(c2)CC(C)N3C(=O)C2CC2)cc1 (stereo not given)	1	1.0	-7	-4	-4.9
43	CN(C)S(=O)(=O)N1CCN(c2ccc([N+](=O)[O-])cc2)CC1	18	-0.2	1	-1	1.0
44	O=C(N/N=C/c1cccnc1)c1cc(-c2ccc(Br)cc2)nc2ccccc12	·	0.1	9	1	1.3
45	COc1cc(CC(=O)Nc2ccc(N3CCOCC3)cc2)cc(OC)c1OC	-8	-0.1	10	-1	-1.9

item	Beta apoptosis	MLL AF4-AF9 inh	Vif A3G	RanGTP-Imp inh	Calb FLC
31	3	-0.4	-11%	1.4	18
32	-10	-6.0	5%	-4.5	-26
33	-1	·	·	24	-5
34	-1	0.4	15%	1.3	-1
35	8	3.4	-7%	-1.6	11
36	0	3.3	5%	2.0	12
37	-1	-1.5	1%	0.9	-8
38	-3	-1.0	·	-5.0	6
39	2	-0.4	-8%	3.0	37
40	-3	-2.0	-2%	-3.4	-30
41	·	·	-17%	-2.3	-4
42	5	1.3	·	1.9	-4
43	5	-0.6	·	-4.7	-3
44	9	-0.5	·	·	19
45	2	-0.8	4%	-1.7	-8

# Next entries.
item	Molecule	T cruzi inh	Bfl-1 A1 inh	Ecoli rRNA inh	Ecoli rRNA inh OD600	Ecoli rRNA inh RFP
46	COc1cccc(-c2nnc(NC(=O)c3cccs3)s2)c1	-9	-0.3	6	19	-0.6
47	CN(C(=O)COC(=O)CNC(=O)c1ccc(C(C)(C)C)cc1)c1c(N)n(Cc2ccccc2)c(=O)[nH]c1=O	-18	-0.7	-1	1	-2.1
48	COc1ccc(-c2ccc(N(C)C)cc2)cc1[C@H]1[C@@H]2C=CCC[C@@]2(C)C(=O)N1Cc1ccccc1	34	-0.2	9	15	10
49	O=C(COC(=O)C1=Cc2ccccc2OC1)NCc1ccco1	-4	-3.3	12	14	2.7
50	CCCNC(=O)COC(=O)c1cc2c(=O)n3ccccc3nc2s1	-45	0.0	·	·	·
51	COc1ccc(CN(C(=O)c2nsc(Cl)c2Cl)C(C(=O)NC2CCCCC2)c2ccc(OC)cc2)cc1 (stereo not given)	23	-0.4	·	·	·
52	CCc1ccc(C(=O)CN2C(=O)NC(C)(c3ccc(C)cc3)C2=O)cc1 (stereo not given)	10	0.7	0	4	-0.8
53	O=C(/C=C/c1ccccn1)c1ccc(Br)cc1O	·	0.8	-14	-9	20
54	COc1cc(/C=C2\C(=O)N(C)C(=S)N2C)ccc1O	-7	1.0	15	11	5.4
55	CC(=O)NC1(c2ccc(F)cc2)CCN(C(=O)Nc2ccc(F)cc2F)CC1	-5	?	·	·	·

item	Beta apoptosis	MLL AF4-AF9 inh	Vif A3G	RanGTP-Imp inh	Calb FLC
46	-3	-10	-9%	0.6	10
47	1	0.7	2%	7.3	6
48	4	6.6	·	-5.5	3
49	-6	-3.4	25%	·	-30
50	-14	·	?	6.2	-6
51	31	·	25%	-2.3	36
52	-6	-0.9	5%	2.3	15
53	-1	2.1	2%	·	·
54	6	-2.2	-3%	4.6	5
55	-3	·	-2%	-0.5	1
